# Screening data deposited in PubChem by several laboratories.
# PKD1 kinase inh: inhibitors of human PKD1 kinase, biochemical, fluorescence polarization; Serine/threonine-protein kinase D1 (Homo sapiens), Q15139; PKD1 kinase fluorescence polarization assay; inhibition, %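 (about 10 µM by stock and volumes)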; 0.056% of 200,000 active;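 active = inhibition of 50% or more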;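 also: controls were vehicle for no effect and a reference inhibitor for full effect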
# GALR2 agonist: GALR2 receptor agonists, primary screen, cell-based | Galanin receptor type 2 (Homo sapiens), O43603 | GALR2-expressing cells, agonist activation read-out | activation, %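 (tested at 5 µM)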 | 0.48% of 140,000 active | AID 803, 2007;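 active = above mean plus 3 SD of all compounds, about 5% in these data, not always enough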;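 also: 0% = vehicle buffer wells and 100% = reference agonist at full effect; tested in CHO reporter cells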
# Target sequence (O43603 whole entry, looked up): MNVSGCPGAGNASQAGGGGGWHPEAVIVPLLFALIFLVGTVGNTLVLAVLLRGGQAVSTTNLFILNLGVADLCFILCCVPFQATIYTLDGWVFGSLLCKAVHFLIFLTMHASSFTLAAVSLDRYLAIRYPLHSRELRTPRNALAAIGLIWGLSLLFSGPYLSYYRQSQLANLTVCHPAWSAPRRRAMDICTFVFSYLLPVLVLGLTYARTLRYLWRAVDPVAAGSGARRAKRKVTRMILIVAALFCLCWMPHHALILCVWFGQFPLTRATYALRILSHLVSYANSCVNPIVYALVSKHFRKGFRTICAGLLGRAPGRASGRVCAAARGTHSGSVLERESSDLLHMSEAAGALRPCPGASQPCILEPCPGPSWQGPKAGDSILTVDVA
# HSV replic up: enhancers of HSV replication in host cells, fold increase, host cell viability. maximum fold increase. HSV replication augmentation in cells. AID 1956, 2009. 0.005% of 220,000 active;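 active = peak rise of 1.5-fold or more in the series; tested in PC3 cells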;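 also: first round at 10 µM; read as green reporter fluorescence; hits show the peak of a series up to 25 µM; 1 = signal of infected wells without compound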
# Insulin prom inh: inhibitors of insulin promoter-driven GFP, primary screen, imaging, TRM-6 cells (human fetal islet line), eGFP reporter, cell count | inhibition, % at 2 µM | AID 1273, 2008 | reporter expression induced with tamoxifen | 0.9% of 130,000 active;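 active = inhibition above the mean plus 3 SD, with well images judged a real hit on visual review, cut at about 60% in these data, passing the limit was not always enough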
# RGS16-Gao HTS: modulators of RGS16 binding to Galphao, primary screen, biochemical, human proteins, multiplexed bead flow cytometry; Regulator of G-protein signaling 16 (Homo sapiens) + Guanine nucleotide-binding protein …; bead-based flow cytometry RGS16-Galphao binding, fluorescence; actives lie on both sides; binding response (% of control), % at 10 µM; 0.38% of 220,000 active;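 active = below 25% or above 175%, edge rows of some plates excepted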;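 also: Galphao activated by GDP with aluminum fluoride before binding; 100% = wells without compound and 0% = beads without RGS; some results beyond the cut were filed as inactive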
# Target sequence (O15492 whole entry, looked up): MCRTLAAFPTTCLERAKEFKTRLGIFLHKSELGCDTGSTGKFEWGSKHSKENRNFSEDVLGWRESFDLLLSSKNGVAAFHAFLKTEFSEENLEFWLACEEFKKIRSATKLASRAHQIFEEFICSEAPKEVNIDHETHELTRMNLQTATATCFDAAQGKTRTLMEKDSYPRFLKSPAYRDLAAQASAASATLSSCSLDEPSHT
# Target sequence (P09471 whole entry, looked up): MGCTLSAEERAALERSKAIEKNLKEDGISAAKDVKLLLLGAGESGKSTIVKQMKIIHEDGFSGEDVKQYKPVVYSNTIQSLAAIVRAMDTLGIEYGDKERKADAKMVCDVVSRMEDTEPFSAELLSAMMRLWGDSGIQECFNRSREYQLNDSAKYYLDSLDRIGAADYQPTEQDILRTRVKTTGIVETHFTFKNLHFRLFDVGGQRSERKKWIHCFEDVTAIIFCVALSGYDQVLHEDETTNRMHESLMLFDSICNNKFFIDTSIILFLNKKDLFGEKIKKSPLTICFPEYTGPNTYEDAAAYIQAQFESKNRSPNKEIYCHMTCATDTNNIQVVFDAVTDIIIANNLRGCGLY
# Insulin prom inh cell count: recorded beside Insulin prom inh, whose call it bears; normalized cell count, %; measured here: cell count, toxicity; reference of the scale not given here;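 cells exposed to compound for 48 h; stained nuclei by imaging scaled within each plate; lower means fewer cells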
# HSV replic up primary fold: also measured in HSV replic up; calls as there; fold increase; compound at 10 µM; measured here: primary screen fold increase 10 uM; tested in PC3 cells;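 GFP signal in the first replicate; 1 = infected wells without compound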
# The depositor's hits bear a star; i = inactive; x = no result given.
SMILES,PKD1 kinase inh,GALR2 agonist,HSV replic up,HSV replic up primary fold,Insulin prom inh,Insulin prom inh cell count,RGS16-Gao HTS
CCc1ccc2nc(SCC(=O)Nc3nnc(C)s3)c(C)cc2c1,-1,x,i,0.98,42,89,104
CCCc1nn2c(=O)c(C(c3cccc(Cl)c3)c3c(O)nc4sc(CCC)nn4c3=O)c(O)nc2s1,-14,-1.9,x,x,-3,98,107
Cc1ccc2nc(CCc3nc4ccc(C)cc4o3)oc2c1,1,-0.2,i,0.94,-55,163,99
CCN(CC)CC(=O)Nc1ccc(/C(C)=N/NC2=NCCN2)cc1,0,x,i,0.84,36,89,108
O=C(O)C1C2CCC(C2)C1C(=O)Nc1cc(F)ccc1F (stereo not given),2,-2.0,i,1.1,-125,102,100
COc1ccc(NC(=O)CSc2nnc(Cc3cccn3C)n2-c2ccc(F)cc2)cc1OC,3,-0.5,i,0.88,x,x,110
COc1ccc(-n2c(=O)cc(N3CCOCC3)[nH]c2=O)cc1,2,-2.6,i,1.1,-7,146,100
CCc1ccc(/C=N/n2c(C)cc(C)c(C#N)c2=O)cc1,-7,-0.3,i,1.1,39,170,108
O=C(O)CSC(=S)N1CCCCC1,1,-1.3,i,0.96,-46,31,66
CC1=C(C(=O)OC2CCCCCCC2)C(c2cc3c(cc2Br)OCO3)CC(=O)N1 (stereo not given),-11,-2.1,i,0.93,36,167,99
O=C(NCc1ccccn1)c1nn(-c2ccccc2)c(=O)c2ccccc12,11,x,i,0.92,x,x,95
NNC(=O)c1csc(-c2ncc(C(F)(F)F)cc2Cl)n1,x,x,i,1,x,x,102
CCCSC1=N/C(=C\c2ccsc2)C(=O)S1,-6,-1.5,i,1,27,91,104
CC(=O)c1sc(-c2ccccc2Cl)nc1C,3,x,i,0.85,x,x,101
Cc1ccc(O)c(-c2cc(C(=O)NCc3ccccc3)[nH]n2)c1,-7,-1.4,i,0.96,x,x,75

# Complete entries from above. Order of screens: PKD1 kinase inh | GALR2 agonist | HSV replic up | HSV replic up primary fold | Insulin prom inh | Insulin prom inh cell count | RGS16-Gao HTS
# `CC1=C(C(=O)OC2CCCCCCC2)C(c2cc3c(cc2Br)OCO3)CC(=O)N1` (stereo not given) is entered as -11 | -2.1 | i | 0.93 | 36 | 167 | 99
# `O=C(O)CSC(=S)N1CCCCC1` is entered as 1 | -1.3 | i | 0.96 | -46 | 31 | 66
# `CC(=O)c1sc(-c2ccccc2Cl)nc1C` is entered as 3 | x | i | 0.85 | x | x | 101
# `CCCc1nn2c(=O)c(C(c3cccc(Cl)c3)c3c(O)nc4sc(CCC)nn4c3=O)c(O)nc2s1` is entered as -14 | -1.9 | x | x | -3 | 98 | 107
# `NNC(=O)c1csc(-c2ncc(C(F)(F)F)cc2Cl)n1` is entered as x | x | i | 1 | x | x | 102

# (further entries)
SMILES,PKD1 kinase inh,GALR2 agonist,HSV replic up,HSV replic up primary fold,Insulin prom inh,Insulin prom inh cell count,RGS16-Gao HTS
CCOC(=O)c1sc(N(C)C(C)=O)nc1C,3,-1.5,i,0.96,8,94,110
CS(=O)(=O)n1nc(-c2ccccc2)nc1N,-8,-2.7,i,0.9,x,x,86
CCn1c(SC/C=C/c2ccccc2)nnc1-c1cccs1,-8,-2.0,i,0.84,-191,63,109
O=C(CS(=O)CC(=O)N(c1ccccc1)C(C(=O)NC1CCCC1)c1cccs1)Nc1ccc(F)cc1 (stereo not given),-7,-2.9,i,0.95,-44,149,158
CC(=O)Nc1ccccc1C(=O)N1CCc2ccccc21,-6,-4.2,i,0.89,43,103,99
Cn1c(COc2ccccc2)nnc1SCc1cc(=O)[nH]c2ccccc12,-4,-2.0,i,0.97,x,x,103
CSc1nnc(-c2ccccc2N=Cc2c(C)[nH]n(-c3ccc4ccccc4c3)c2=O)c(=O)[nH]1,-7,-1.4,i,0.87,-16,224,104
CCN(CC)CC(=O)Nc1sc(C)c(C)c1C(=O)c1ccc(C)cc1,-1,x,i,1.1,-27,113,103
O=C(C[n+]1cccc(O)c1)Nc1ccc(Br)cc1,4,x,i,0.91,x,x,103
COc1cc(NC(=O)c2ccco2)c(OC)cc1NC(=O)Nc1cccc(Cl)c1,10,0.8,i,1.2,x,x,103
COc1ccccc1N1CCN(C(=O)CSc2nc3ccccc3c(=O)n2CC2CCCO2)CC1 (stereo not given),0,-1.4,x,x,x,x,103
CCOc1ccc2nc(NC(=O)C3CCCN(S(=O)(=O)c4cccs4)C3)sc2c1 (stereo not given),-3,-1.0,i,0.88,x,x,104
Cn1c(C(=O)NCC2CCCO2)cc2c(=O)[nH]c3ccccc3c21 (stereo not given),1,-1.0,i,0.76,71,116,104
O=C(NC1CC1)c1cc(F)c(F)cc1Cl,11,-3.1,i,1.1,x,x,95
CS(=O)(=O)N(CC(=O)Nc1ccccc1)c1cccc(Cl)c1Cl,0,x,i,0.87,-67,36,127
Cc1ccc(Cl)cc1N1CCN(C(=O)C2CCC(=O)N2C(C)C)CC1 (stereo not given),1,-0.4,x,x,15,85,113
CCOc1ccc2c(c1)/C(=C(\C(Cl)=C(Cl)Cl)[N+](=O)[O-])N2,-1,x,i,0.99,-376,77,98
[O-]/[N+](=C/c1cccnc1)c1ccc(Br)cc1,0,-1.3,i,0.88,x,x,103
COc1cccc(NC(=O)Cn2cnc3sc(C)c(S(=O)(=O)N4CCN(C)CC4)c3c2=O)c1,-20,-2.7,i,0.83,-50,87,97
CC1CSc2nnc(CCc3ccccc3)n21 (stereo not given),-10,-1.2,i,1.3,x,x,99
COc1ccc(C2(C(=O)NCCCN3CCOCC3)CCOCC2)cc1,-14,-0.1,i,0.85,21,87,99
O=C(CCCOc1ccc(Cl)cc1Cl)N/N=C/c1ccccc1O,-10,-2.0,i,0.61,x,x,108
COc1cc(OC)c(C2N(C)c3ccccc3N2C)cc1OC,-6,-0.5,i,0.94,42,205,101
CCOC(=O)c1cn(CC)c2cc(Cl)c([N+](=O)[O-])cc2c1=O,-4,-1.5,i,1.1,x,x,104
COc1ccc(C(=O)/C=C/c2ccc(O)cc2)cc1,6,x,i,0.69,x,x,86
Cc1ccc(-n2c(SCC(=O)NCc3ccco3)nnc2-c2cccnc2)cc1,-2,-1.1,i,1,-17,106,119
O=C(O)Cc1sc(-c2ccccc2)nc1-c1cccs1,1,x,i,0.93,x,x,101
Cc1cc(OCc2nnc(SC(C)C(=O)O)n2Cc2ccccc2)ccc1Cl (stereo not given),-8,x,i,1,x,x,105
Cc1c(C(c2cc3c(cc2Br)OCO3)c2c(C)n(C)n(-c3ccccc3)c2=O)c(=O)n(-c2ccccc2)n1C,-2,-2.6,x,x,-233,103,105
N#CCCN(C(=O)CSc1ccc2c(c1)OCCO2)c1ccc(F)cc1,-7,-3.8,i,0.97,-4,109,101
Cc1sc2nc(SCC(=O)NCCOCCO)nc(N)c2c1C,-4,x,i,1,-43,115,91
O=C(Oc1ccc2c(c1)OCC2=O)c1ccc(Cl)cc1,x,x,i,1,x,x,101
CCCNC(=O)Cn1cccc1C(=O)c1ccccc1,1,-1.8,i,0.84,14,122,103
CCc1nc2c(c(=O)c3ccccc3n2C)c(=O)n1CCc1ccc(OC)cc1,-6,1.4,i,0.98,x,x,65
O=C(CN1CCCC1)Nc1c2c(cc3c1CCC3)CCC2,2,-2.5,i,0.96,-38,153,100
O=C(c1ccc(Cl)c(Cl)c1)N1CCC(=O)N(C(COCc2cccc(Cl)c2)Cc2ccccc2)CC1 (stereo not given),-4,-1.9,i,0.95,-41,110,101
Clc1ccc2nc(CN3CCCc4ccccc43)cn2c1,-10,-1.5,i,1,-14,192,102
CC(C)c1cc(N2CCC(=O)NC2=O)cc(C(=O)O)c1O,1,-0.7,i,0.92,-36,99,109
C=CCN(c1ccccc1)S(=O)(=O)c1cccc2cccnc12,x,x,i,1.1,x,x,111
COc1cc2[nH]c3c(=O)n4c(nc3c2cc1OC)SCCC4,-3,x,i,1,x,x,93
COc1ccc(C(CNC(=O)COc2ccccc2C#N)N2CCOCC2)cc1 (stereo not given),-9,-0.7,i,0.9,x,x,100
CC(C)CCNC(=O)C(c1ccc(O)cc1)N(C(=O)C1COc2ccccc2O1)c1cccc(O)c1 (stereo not given),1,x,i,0.98,x,x,102
C=C(C)/C=N/NC(=S)Nc1ccc(S(=O)(=O)N2CCOCC2)cc1,x,x,i,1.1,x,x,108
Cc1ccc2cccc(S(=O)(=O)N3CCCc4ccccc43)c2n1,-1,x,i,0.94,x,x,103
Cc1noc(C)c1C(=O)OCC(=O)N1CCN(S(=O)(=O)c2ccc3ccccc3c2)CC1,x,x,i,0.87,x,x,100
Cc1ccc(C)c2[nH]c(=O)c(C(c3nnnn3C3CCCC3)N3CCOCC3)cc12 (stereo not given),-6,1.2,i,0.9,0,81,95
COc1ccc(CNc2ncccn2)cc1OC,3,x,i,1.1,47,148,95
CC1CCCCC1NS(=O)(=O)c1ccc(-n2cnnn2)cc1 (stereo not given),-2,-0.6,i,0.87,38,92,97
Cn1c(Cc2ccccc2)nnc1SCC(=O)N1CCN(c2ccccc2)CC1,-10,-2.1,i,0.95,-143,80,99
CN1CCN(CCCNC(=O)c2cc3c(=O)n(C)c4ccccc4c3s2)CC1,3,-0.5,i,0.82,x,x,94
O=Nc1c(O)n(Cc2c(Cl)cccc2Cl)c2ccccc12,-2,-2.0,i,0.84,-72,169,104
CCCCCC(=O)NC(=S)Nc1ccc2oc(=O)ccc2c1,-8,x,i,0.97,x,x,100
CCn1c(SCC(=O)Nc2nc(C)c(C)s2)nnc1-c1cccnc1,3,-1.0,i,0.88,17,88,107
C/C(CC(=O)Nc1ccc(Cl)cn1)=N\NC(=O)Cc1cccs1,x,x,i,0.77,x,x,105
COc1ccc(C(=O)Nc2nc(-c3cccs3)cs2)cc1,-12,-1.5,i,1.1,-24,87,1
COc1ccc(CC2(CO)CCN(CC3=CC[C@H]4C[C@@H]3C4(C)C)CC2)cc1,-2,x,i,0.79,x,x,106
CCCCN(CC(=O)NCc1ccc(Cl)cc1)S(=O)(=O)c1ccc2c(c1)OCCO2,-3,-1.9,i,0.85,-8,123,101
O=C(N/N=C/C1CCCCC1)c1cc(Cl)ccc1O,-15,-0.9,i,1.1,7,58,101
C/C(=N\Nc1ccc(C(F)(F)F)cn1)c1ccc(S(=O)(=O)NCc2ccco2)cc1,5,-0.9,i,0.83,3,75,105
CC(C)CC(=O)NC(NCC1CCCO1)C(Cl)(Cl)Cl (stereo not given),-8,-0.5,i,0.96,-50,80,107
# (cont.)
SMILES,PKD1 kinase inh,GALR2 agonist,HSV replic up,HSV replic up primary fold,Insulin prom inh,Insulin prom inh cell count,RGS16-Gao HTS
NC(=O)c1ccc(C2SCC(=O)N2Cc2ccccc2)cc1 (stereo not given),-10,-3.4,i,1,-43,65,121
Cc1cc2c(cc1C)CSC(c1ccccc1OC(=O)C(C)C)SC2,2,-2.4,i,1,x,x,101
CCC(C)(C)NC(=O)C(c1cccn1C)N(Cc1ccc(OC)cc1)C(=O)Cn1nnc2ccccc21 (stereo not given),4,8.6,i,0.43,41,106,99
CC1CCc2c(sc(NC(=O)CSc3ncnc4c3cnn4-c3ccccc3Cl)c2C#N)C1 (stereo not given),-5,-1.1,i,0.86,-34,88,100
CCN(CC)c1ccc(NC(=O)c2ccccc2Br)cc1S(=O)(=O)Nc1ccccc1OC,0,-0.5,i,1.1,-17,46,65
COCCN1C(=O)C(CC(=O)Nc2ccccc2)SC1=Nc1ccc(OC)cc1 (stereo not given),-12,-0.7,i,1,-23,92,87
CCC(C(=O)Nc1cccc(C(=O)O)c1)c1ccccc1 (stereo not given),-7,x,i,0.93,x,x,116
Cc1ccc(C)c(N(C(=O)CCC(=O)Nc2cc(C)on2)C(C(=O)NC2CCCC2)c2ccco2)c1 (stereo not given),-7,-3.3,i,0.81,-58,101,99
O=S(=O)(Nc1ccc2c(c1)nc1n2CCN(Cc2ccccc2)C1)c1ccc(F)cc1,10,-1.8,i,0.89,x,x,108
CCSc1nnc(NC(=O)c2csc(C)c2)s1,-13,-0.7,i,0.89,-288,88,72
O=C(c1ccccc1)c1coc2ccc(O)c(CN3CCOCC3)c12,9,-0.7,i,0.98,-8,103,90

# 3 entries out of the list, ordered by molar mass, descending.
SMILES,PKD1 kinase inh,GALR2 agonist,HSV replic up,HSV replic up primary fold,Insulin prom inh,Insulin prom inh cell count,RGS16-Gao HTS
CC1CCc2c(sc(NC(=O)CSc3ncnc4c3cnn4-c3ccccc3Cl)c2C#N)C1 (stereo not given),-5,-1.1,i,0.86,-34,88,100
CCOc1ccc2c(c1)/C(=C(\C(Cl)=C(Cl)Cl)[N+](=O)[O-])N2,-1,x,i,0.99,-376,77,98
COc1ccc(C(=O)Nc2nc(-c3cccs3)cs2)cc1,-12,-1.5,i,1.1,-24,87,1

# Compounds as they come, and some 1.3% of all compounds hit somewhere here.
